Screening data: PubChem BioAssay, several laboratories
HIV Env fusion: inhibitors of HIV Env-mediated cell fusion; HeLa-JRFL Env/CEM21 cell fusion, luciferase; inhibition, % at 12.3 µM; hit rate 1.1% among 360,000; AID 651610;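 active means mean replicate inhibition score of at least 50 and every replicate individually at or above 50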;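 further: 0% = plate neutral controls and 100% = maraviroc near 300 nM; one replicate is shown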
PABP polyA inh: blocks human PABP binding to poly(A) RNA | P11940 | inhibition, % at 35 µM | hit rate 1% among 290,000 | fluorescence polarization;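 active means 50% or more with normal probe brightness, or confirmed in later tests; about a fifth of its hits are not listed in these tables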;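 further: calls also rest on retests at 20 µM and on dose response follow-up; controls were probe without protein and protein plus probe with vehicle; some compounds called inactive have numbers as strong as hits; many hits fall short of the cut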
MT1-MMP act inh: inhibitors of human MT1-MMP activation. AID 651647. GFP/RFP ratio change, % at 20 µM. hit rate 0.061% among 360,000. P50281. HT1080 RFP-PRO-GFP cells, GFP/RFP ratio fluorescence, overnight; percent of plate control window, DMSO zero;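 active means GFP/RFP ratio change of at least 30% with cell ATP level not reduced by more than half and red fluorescence within 50% of control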; further: strong numbers were not always called active
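Assay system – RFP-PRO-GFP reporter HT1080 cells · Compound dosing – single dose of 20 µM compound, 1% DMSO final · Incubation – overnight compound exposure at 37 °C · Measure – GFP/RFP fluorescence ratio · Benchmarks – DMSO wells and RFP-L50D-GFP cells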
CSC inhib: blocks cancer stem cells; cancer stem cell-like cells viability, luminescence; inhibition, % at 7.5 µM; hit rate 1.1% among 300,000; AID 2717;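 active means mean at 75% or more and at least half the replicates too; tested in HMLE shEcad cells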;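 further: 0% = median of negative and 100% = median of positive control wells; the first replicate is given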
Yeast UUG start: alters start codon recognition fidelity in yeast; S. cerevisiae UUG-firefly luciferase reporter, luminescence/redox ratio; activity score, % at 18.7 µM; hit rate 0.13% among 350,000;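 active means replicate mean at a twofold rise or more, about +100% in these data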;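 further: firefly luciferase made from a UUG start codon reports start codon fidelity; reporter light over untreated wells divided by growth signal over untreated wells; some hits fall short of that in this replicate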
Rce1 inh: yeast Ras-converting enzyme inhibition; Q03530; yeast membranes, quenched prenylated peptide cleavage fluorescence; calls only; hit rate 0.27% among 290,000;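 active means fall in fluorescence gain of 50% or more versus controls, with final raw signal at or below 3038400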;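 further: plate controls were neutral control wells for no effect and wells lacking membranes for full effect; tested at 10 µM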
Target sequence (Q03530 whole entry, looked up): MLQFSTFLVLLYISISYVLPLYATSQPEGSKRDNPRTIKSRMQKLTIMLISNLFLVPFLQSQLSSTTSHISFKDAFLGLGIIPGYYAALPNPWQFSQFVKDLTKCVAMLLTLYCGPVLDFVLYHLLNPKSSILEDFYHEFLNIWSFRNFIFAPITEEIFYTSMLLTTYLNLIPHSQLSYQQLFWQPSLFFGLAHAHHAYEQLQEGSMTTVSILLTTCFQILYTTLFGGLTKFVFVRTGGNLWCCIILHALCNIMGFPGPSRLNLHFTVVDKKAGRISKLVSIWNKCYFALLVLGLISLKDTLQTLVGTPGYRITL
eIF4H FP inh: inhibitors of RNA binding by human eIF4H; inhibition, % at 35 µM; eIF4H fluorescence polarization binding assay; hit rate 0.94% among 290,000;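 active means 50% or more with normal probe brightness, or confirmed in later tests; about a fifth of its hits are not listed in these tables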;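 further: calls also rest on retests at 20 µM and on dose response follow-up; 0% = protein and probe with vehicle and 100% = probe without protein; strong numbers were not always called active; many hits fall short of the cut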
eIF4H FP inh retest: also measured in eIF4H FP inh; calls as there; inhibition, %; compound at 20 µM; confirmation average;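 mean of two retest wells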
PABP polyA inh retest: second read-out of PABP polyA inh, no call of its own (marks repeat the call); inhibition, %; compound at 20 µM; confirmation repeats;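 mean of two retest wells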
MT1-MMP act inh RFP: second read-out of MT1-MMP act inh, no call of its own (marks repeat the call); RFP signal change, %; measured here: RFP expression control read;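 0 = vehicle wells; hits needed this value within 50% of zero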
Numbers without * were called inactive; i = inactive; . = no result given; & = joins results of further samples.

SMILES | HIV Env fusion | PABP polyA inh | MT1-MMP act inh | MT1-MMP act inh RFP | CSC inhib | Yeast UUG start | Rce1 inh | eIF4H FP inh | others
Cc1ccc(CNC(=O)C(C)OC(=O)c2ccco2)cc1 (stereo unspecified) | 5 | -3 | -6 | 0 | -24 | -13 | i | -2
O=C(OCC(=O)c1ccc(Cl)cc1Cl)c1ccccn1 | -16 | . | 0 | 4 | -6 | -78 | . | .
O=C(CCN1C(=O)c2ccccc2S1(=O)=O)N1CCN(c2ccc(F)cc2)CC1 | -12 | . | 2 | -7 | 8 | . | i | .
CCOc1ccc(C2c3[nH]c4ccccc4c3C[C@H]3C(=O)N(C4CC4)CC(=O)N23)cc1OC (stereo partly specified) | 18 | 0 | 6 | 1 | 0 | -6 | i | -6
O=C(C1CCN(S(=O)(=O)c2ccc(Cl)cc2)CC1)N1CCC1 | 20 | . | 0 | 1 | -15 | . | i | .
C=C(C)CNC(=S)N/N=C\c1ccc2c(c1)OCO2 | -23 | . | 6 | 4 | 14 | -27 | i | .
CC(=O)Nc1ccc(S(=O)(=O)NC2(C(F)(F)F)NC(=O)N(c3ccccc3F)C2=O)cc1 (stereo unspecified) | -13 | -1 | 9 | 10 | -26 | . | i | -6
CCCCn1c(O)c(/C=C/C=C/C=Nc2ccccc2)sc1=S | -6 | 4 | 7 | 32 | -3 | . | i | 54* | eIF4H FP inh retest=53*;PABP polyA inh retest=34
CCCCCn1c(=O)[nH]c2cc(C(=O)NCCN(CC)CC)ccc2c1=O | -64 | -11 | -3 | 2 | 12 | -13 | i | -2
Cc1cccc(NC(=O)CSc2nc3ccccc3c(=O)n2C)c1 | 7 | 8 | -2 | -25 | 7 | -14 | i | 3
CCOc1ccc(S(=O)(=O)NCCOC)cc1C | 11 | 1 | 2 | 3 | -10 | -4 | i | 0
CC(=O)Nc1ccc2c(c1)ncn2-c1ccccc1 | -31 | -3 | 6 | 6 | 3 | -19 | . | -9
COc1ccc(-c2nc(-c3cccs3)no2)cc1 | -32 | 3 | 1 | -3 | 14 | . | i | -5
O=C1N[C@H](Cc2ccccc2)COC(=O)[C@@H](Cc2ccc(F)cc2)CC/C=C/C[C@H]1CC(=O)N(CCO)Cc1ccccc1 | 25 | . | -15 | -23 | 37 | -9 | . | .
COc1cc2[nH]c(=O)c(C(=O)NCCCN3CCOCC3)c(O)c2cc1OC | -1 | -9 | 8 | -5 | 0 | . | i | -9
Cc1nc2ccccc2n1/C(=N\S(=O)(=O)c1ccccc1)c1ccccc1 | -8 | 10 | -3 | 1 | -7 | . | i | -7
O=[N+]([O-])c1ccc(/C=N/N2CCN(c3ccncc3S(=O)(=O)N3CCCCC3)CC2)cc1 | 15 | -2 | 7 | 0 | 8 | . | i | -5
CC(=O)c1ccccc1OCc1ccc(S(=O)(=O)Cc2ccccc2)cc1 | 6 | -3 | -7 | -24 | . | -8 | i | -9
COc1ccc(C(=O)NCC(c2ccco2)N(C)C)cc1S(=O)(=O)NCc1ccc(Cl)cc1 (stereo unspecified) | -7 | . | -2 | 0 | . | -5 | . | .
O=C(C1CCN(S(=O)(=O)c2cccc3cccnc23)CC1)N1CCCC1 | -5 | -2 | -2 | -4 | -15 | -30 | i | -1
CC1CC(C)CN(C(=O)COC(=O)CCC(=O)c2cccs2)C1 (stereo unspecified) | -21 | . | 1 | 2 | -2 | -2 | . | .
Cc1cccc(C(=O)N2CCC(n3nnc4cc(F)ccc43)CC2)c1 | -28 | 2 | 0 | -4 | -10 | -15 | . | -1
O=C(NCc1cccs1)c1cc(-c2ccccc2)nn1CC1CC(c2cccc([N+](=O)[O-])c2)=NO1 (stereo unspecified) | 35 | . | -2 | 2 | -2 | -13 | i | .
CCn1c(SCC(=O)NC2CCCCC2)nnc1-c1ccco1 | 27 | 3 | 0 | 1 | . | -18 | i | -12
COc1ccc(C(=O)C(CCC(CNC(C)(C)C)C(=O)c2ccc(OC)cc2)CNC(C)(C)C)cc1 (stereo unspecified) | . | -2 | 0 | -8 | 41 | . | i | 3
Cc1ccc(NC(=O)COC(=O)c2cccnc2Cl)cc1S(=O)(=O)N1CCCCC1 | 0 | 18 | 3 | -1 | -10 | -1 | i | 2
Cc1cc(C)cc(CSc2ccc(S(=O)(=O)N3CCCC3)cn2)c1 | 4 | . | -10 | -8 | 34 | 5 | . | .
Cc1ccc(C(=O)c2c(C)oc3c2C(=O)C(=O)c2ccccc2-3)cc1 | . | 9 | 5 | 4 | 28 | . | i | -6
CC1=CC=CC2=NC(=O)CC(C)(C(=O)N(CC(=O)NC3CCCC3)Cc3ccc(Cl)cc3)N12 (stereo unspecified) | 1 | -4 | 4 | 4 | . | -2 | i | -1
Oc1ccccc1CNc1nccs1 | -7 | -6 | 4 | 5 | 3 | -14 | i | -9
O=C1CCN(S(=O)(=O)c2ccccc2)C2CCCCC12 (stereo unspecified) | -27 | -12 | 2 | 3 | -16 | -4 | i | -12
O=C(COC(=O)C1CCN(S(=O)(=O)c2cccs2)CC1)NCc1ccc(F)cc1 | -38 | -5 | -5 | 2 | -1 | 2 | i | -5
CCOC(=O)Nc1c(Cl)[nH]c(=O)n(C)c1=O | -6 | . | 2 | 2 | . | -11 | . | .
COC(=O)CC1C(=O)NCCN1C(=S)Nc1ccccc1 (stereo unspecified) | . | 17 | 5 | 5 | -12 | -16 | i | -8
COc1ccc(NS(=O)(=O)c2cccc(C(=O)NCC3(N4CCOCC4)CCCCC3)c2)cc1 | 9 | -5 | 0 | 3 | . | -13 | i | -18
COc1ccc(OCc2ccc(C(=O)O)cc2)cc1 | -110 | 2 | 2 | 3 | 3 | -13 | i | -6
O=C(O)CC(=O)NC12CC3CC(CC(C3)C1)C2 | . | 4&-1 | 2&-1 | 4&5 | 1 | -13 | i | -3&-9
Cc1c(Cl)cccc1NC(=O)C1CCN(S(C)(=O)=O)CC1 | 14 | 2 | -2 | 0 | 0 | . | i | 2
CCn1c2ccccc2c2cc(NC(=O)c3cccc([N+](=O)[O-])c3C)ccc21 | 5 | -10 | 6 | 2 | -11 | . | i | -3
C1CCC(Nc2nc3nonc3nc2N2CCSCC2)C1 | -8 | -5 | -4 | 3 | -5 | . | i | 10

Arranged by count of non-hydrogen atoms (smallest number first): 4 of the compounds above
SMILES | HIV Env fusion | PABP polyA inh | MT1-MMP act inh | MT1-MMP act inh RFP | CSC inhib | Yeast UUG start | Rce1 inh | eIF4H FP inh | others
O=C(O)CC(=O)NC12CC3CC(CC(C3)C1)C2 | . | 4&-1 | 2&-1 | 4&5 | 1 | -13 | i | -3&-9
C1CCC(Nc2nc3nonc3nc2N2CCSCC2)C1 | -8 | -5 | -4 | 3 | -5 | . | i | 10
CCn1c2ccccc2c2cc(NC(=O)c3cccc([N+](=O)[O-])c3C)ccc21 | 5 | -10 | 6 | 2 | -11 | . | i | -3
COc1ccc(C(=O)C(CCC(CNC(C)(C)C)C(=O)c2ccc(OC)cc2)CNC(C)(C)C)cc1 (stereo unspecified) | . | -2 | 0 | -8 | 41 | . | i | 3

(further entries)
SMILES | HIV Env fusion | PABP polyA inh | MT1-MMP act inh | MT1-MMP act inh RFP | CSC inhib | Yeast UUG start | Rce1 inh | eIF4H FP inh | others
COc1ccccc1N1CCN(C(=O)CN(C)S(=O)(=O)c2ccc3c(c2)c(=O)n(C)c(=O)n3C)CC1 | 17 | -17 | -2 | -1 | 4 | . | i | 6
Cc1ccc(C)c(NC(=S)N(C)CCO)c1 | -8 | 12 | 2 | 4 | -5 | . | i | 14
COCCNc1cc(N)c([N+](=O)[O-])cc1[N+](=O)[O-] | -24 | 6 | 3 | -2 | -6 | . | i | -9
CCC(CC)C(=O)Nc1ccccc1-n1cccc1 | . | -3 | -5 | -1 | -8 | -13 | i | 0
O=C(Cn1cc2c(n1)CCCCC2)NCc1ccccn1 | -88 | 12 | 1 | 3 | -15 | -13 | i | 3
CC(OC(=O)COc1cccc2c1OC(C)(C)C2)C(=O)Nc1ccc(S(N)(=O)=O)cc1 (stereo unspecified) | -8 | . | -2 | -3 | . | -7 | i | .
NC(=O)CC[C@@H]1NC(=O)[C@@H]2CCCN2C(=O)c2cc([N+](=O)[O-])cc(I)c2NCCC[C@@H](C(N)=O)NC1=O | 7 | -13 | . | . | -14 | . | . | 4
CCOc1ccc(-c2nnn(CC(=O)NCc3ccc(C)cc3)n2)cc1 | 5 | -10 | 7 | 0 | -4 | . | i | -8
S=c1[nH]nc(COc2ccccc2)n1/N=C/C=C/c1ccccc1 | 15 | -14 | -1 | -1 | -8 | -14 | i | 2
CCOc1ccccc1NCc1cc(=O)oc2cc(C)ccc12 | 3 | 4 | 2 | 0 | 0 | -12 | i | -10
Cc1sc(-c2ccncc2)nc1OC(=O)c1ccc(F)cc1F | 4 | 1 | -8 | -2 | -4 | . | i | 23
CCCN(CC(=O)Nc1ccccc1C)C(=O)COc1c(C)cccc1C | -24 | . | 2 | -5 | . | 3 | . | .
COc1nc(N/N=C/c2ccc(C)cc2)nc(N2CCCCC2)n1 | -12 | -3 | -1 | 0 | -4 | . | i | -4
Cc1ccc(/C=C/C(=O)Nc2cccnc2)o1 | -25 | 9 | -3 | 3 | -5 | . | i | 28
CCOC(=O)c1cccc(NC(=O)/C=C/c2cccc([N+](=O)[O-])c2)c1 | 22 | 1 | 0 | -2 | -7 | -1 | i | 0
Cc1ccc(NC(=O)CC(=O)c2ccc([N+](=O)[O-])cc2)cc1S(=O)(=O)Nc1cccc(Cl)c1 | 15 | 5 | 0 | -16 | 33 | . | i | -1
CNc1nc(NCCOC23CC4CC(CC(C4)C2)C3)nc(OCC(F)(F)F)n1 | . | -6 | -6 | -13 | 38 | . | i | -5
CC(C)CN1CC(=O)N2C(c3ccccc3)c3[nH]c4ccccc4c3C[C@H]2C1=O (stereo partly specified) | -3 | 0 | 0 | -1 | -13 | -2 | i | -4
N#Cc1c(C(F)(F)F)cc(-c2ccccc2)n(N)c1=O | -1 | -16 | -1 | -1 | -10 | . | i | 0
CCOC(=O)C1CCN(S(=O)(=O)c2ccc3[nH]c(=O)c(=O)[nH]c3c2)CC1 | 17 | 6 | -1 | 3 | -3 | . | i | -6
Cn1c(CO)nc2cc(N)ccc21 | 0 | 8 | -1 | 2 | 12 | . | i | -3
CC(C)c1ccc(NS(=O)(=O)c2ccc(N3C(=O)CCC3=O)cc2)cc1 | 1 | 3 | 2 | -8 | -9 | . | i | -5
Cc1cccc(C(=O)O[C@H]2[C@H](C)NS(=O)(=O)[C@H]3CC4C=C[C@]23O4)c1 | -8 | . | . | . | 0 | 33 | . | .
Cc1ccc(C(=O)N2CC(=O)Nc3ccccc32)o1 | -38 | 9 | -4 | 5 | -10 | -3 | i | 9
COc1ccc(C(=S)N2CCCC2)cc1OC | -49 | -8 | -10 | 2 | 7 | -17 | i | -7
NC(=S)c1ncc(C(F)(F)F)cc1Cl | -20 | 0 | -1 | -1 | -9 | -18 | i | -4
C/C(=N/NC(=O)c1nnn(-c2nonc2N)c1CSc1ccc(C)cc1)c1ccncc1 | 23 | . | 2 | 1 | . | -17 | . | .
COc1ccc(-n2c(=O)c3ccccc3n(CC(=O)NCC3CCCO3)c2=O)cc1 (stereo unspecified) | -1 | -1 | 1 | 4 | 7 | -9 | . | 1
COc1cccc(CC(=O)Nc2ccc(S(=O)(=O)Nc3nccs3)cc2)c1 | 1 | . | -1 | 5 | 9 | 3 | . | .
O=C(CCN1C(=O)C2C3CCC(C3)C2C1=O)OCC(=O)c1ccccc1 (stereo unspecified) | -6 | -4 | -3 | 0 | -1 | -6 | i | 0

An unsorted share of the library; about 2.9% have a hit in one of these screens.
